FGF22 binding: FGF22 (human) thermal shift binding | recombinant FGF22 thermal shift, SYPRO orange fluorescence; percent of sucrose octasulfate shift, DMSO zero | calls only at 9.99 µM | 340,000 tested, 1.5% active;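 active = melting point raised past a set limit in the mean and every replicate; inconclusive = no clear call; three in four hits are not shown here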
UCH37 inh: blocks the human deubiquitinase UCH37; purified proteasome/UCH37, Ub-AMC cleavage fluorescence; 330,000 tested, 0.33% active; AID 588478; Q9Y5K5; inhibition, % (test concentration not listed);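 active = mean of two replicates above 20%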;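 note: 0% = compound-free wells with enzyme and 100% = wells lacking proteasome; stock transfer was 100 nL into about 20 µL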
Target sequence (Q9Y5K5 whole entry, looked up): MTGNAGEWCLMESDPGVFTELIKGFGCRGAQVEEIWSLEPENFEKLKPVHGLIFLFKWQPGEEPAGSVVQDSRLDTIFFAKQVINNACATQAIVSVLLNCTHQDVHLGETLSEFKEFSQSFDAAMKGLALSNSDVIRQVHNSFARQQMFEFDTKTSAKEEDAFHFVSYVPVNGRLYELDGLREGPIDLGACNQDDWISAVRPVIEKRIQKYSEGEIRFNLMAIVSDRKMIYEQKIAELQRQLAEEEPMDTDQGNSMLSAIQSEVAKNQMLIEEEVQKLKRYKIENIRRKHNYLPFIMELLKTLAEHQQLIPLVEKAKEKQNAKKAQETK
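Assay system: Proteasome-bound UCH37. Buffer or medium: pH 7.4 Tris-HCl (50 mM) with ovalbumin, ATP-MgCl2, DTT. Incubation: 30 min preincubation with enzyme, 25 min cleavage at room temperature. Measured by: fluorescence, ex 355 nm, em 460 nm. Read-out basis: percent inhibition. Control set: wells without proteasome as full block, compound-free enzyme plus substrate as uninhibited.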
ALR inh: human ALR oxidase inhibition via reduced H2O2. purified ALR, DTT oxidation, H2O2 HRP-luminol luminescence. inhibition, % (no concentration beside the values). 290,000 tested, 3.8% active;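 active = mean and each replicate at 75% or more; inconclusive = only one of the two met; inactive = neither met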;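 note: stock transfer was 7.5 nL into about 7.5 µL; 0% = neutral wells and 100% = wells with inactivated enzyme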
Target sequence (P55789 whole entry, looked up): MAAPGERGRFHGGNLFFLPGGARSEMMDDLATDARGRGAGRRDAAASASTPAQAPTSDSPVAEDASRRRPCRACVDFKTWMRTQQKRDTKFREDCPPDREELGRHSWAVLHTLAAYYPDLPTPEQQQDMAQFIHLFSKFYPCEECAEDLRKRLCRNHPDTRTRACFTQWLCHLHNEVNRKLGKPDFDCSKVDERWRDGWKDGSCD
LANA-H2B inh: blocks KSHV LANA binding to histone H2A/H2B; Q9QR71; cell-free LANA-H2A/H2B peptide, fluorescence polarization; inhibition, % (no concentration beside the values); 320,000 tested, 0.6% active; in the data active = inhibition mostly above about 10%, no sharp cut-off; inactive = mostly below about 6.7%;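 note: stock transfer was 7.5 nL into about 10 µL; 0% = median of vehicle wells and 100% = median of positive control wells; one replicate is shown; the record names a cut of 25% in any replicate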
HNF4A DNA FP: change in binding of human HNF4 alpha to DNA. AID 1224865. HNF4a-FITC DNA binding, fluorescence polarization, 1 h. activity change, % at 10 µM. 360,000 tested, 0.3% active; in the data active = activity change above about 30%, passing the limit was not always enough;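 note: controls were the assay level and a saturating level of protein; the project sought stronger binding though the title names inhibitors; some compounds called inactive have numbers as strong as hits; positive values seem to mean higher polarization but the record does not say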
Ecoli growth: blocks Escherichia coli growth | OD600, 23 h; hits give low values | OD600 absorbance (concentration not given with the values) | 330,000 tested, 0.21% active | AID 1053175;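 active = OD600 absorbance below the run mean of sample wells minus 3.6 SD, in any replicate, cut at about 0.56 in these data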;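 note: stock transfer was 300 nL into about 60 µL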
Beta2AR agonist: agonists of human beta-2 adrenergic receptor inducing internalization | Am2.2-beta2AR cells, FAP receptor internalization, flow cytometry; reference of the scale not given here | response, % (no concentration beside the values) | 340,000 tested, 0.43% active;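 active = response above a set limit, near 3 SD of response in nonfluorescent compounds, cut at about 42% in these data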;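 note: stock transfer was 100 nL into about 11 µL; a reference agonist was the positive control; negative values mostly stem from fluorescent compounds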
Target sequence (P07550 whole entry, looked up): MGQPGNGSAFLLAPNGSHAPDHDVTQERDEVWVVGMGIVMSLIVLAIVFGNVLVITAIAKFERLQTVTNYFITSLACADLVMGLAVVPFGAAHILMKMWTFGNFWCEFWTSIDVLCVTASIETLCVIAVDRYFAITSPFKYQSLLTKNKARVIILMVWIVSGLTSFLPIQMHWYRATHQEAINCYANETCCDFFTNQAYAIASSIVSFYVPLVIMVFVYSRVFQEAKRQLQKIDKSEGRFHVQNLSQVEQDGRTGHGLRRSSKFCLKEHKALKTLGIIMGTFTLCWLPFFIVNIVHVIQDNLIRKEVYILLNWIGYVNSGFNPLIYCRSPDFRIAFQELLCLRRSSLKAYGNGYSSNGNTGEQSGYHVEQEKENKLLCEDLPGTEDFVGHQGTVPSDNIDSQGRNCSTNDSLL
The depositor's hits bear a star; i = inactive; ? = inconclusive; . = no result given. This is a subset; count on the stated rates, not on these rows.

entry	FGF22 binding	UCH37 inh	ALR inh	LANA-H2B inh	HNF4A DNA FP	Ecoli growth	Beta2AR agonist	compound
1	.	4.8	-0.7	-8.0	2.4	0.709	-7.8	Cc1ccccc1NC(=O)Cn1c(=O)n(Cc2ccccc2)c(=O)c2c(C)c(C)sc21
2	i	4.6	-0.6	0.8	-2.3	0.71	75.4*	Cc1cccc(NC(=O)N2CCC(C(=O)c3ccc(F)cc3)CC2)c1
3	i	3.6	1.8	2.7	2.6	0.695	3.3	CCOC(=O)CNC(=O)/C(=C\c1ccc(F)cc1)NC(=O)c1ccccc1
4	i	3.8	.	3.5	-2.5	0.646	-3.6	Cc1cc([N+](=O)[O-])nn1CC(=O)Nc1cnc2ccccc2c1
5	i	1.4	36.9	0.7	1.3	0.666	8.1	CCOCCCNC(=O)/C(C#N)=C/c1ccc(C(=O)OC)cc1
6	i	5.1	28.5	-5.9	-2.6	0.673	-0.4	O=C(O)c1ccc(CSCc2ccccc2Cl)o1
7	.	2.3	97.6*	-0.4	0.2	0.76	6.2	CCCCc1c(O)nc(SCC(=O)N2CCOCC2)[nH]c1=O
8	.	-4.9	-7.6	1.9	-0.4	0.702	-6.1	CC(C)CC(=O)NC(=S)Nc1ccccc1C(=O)Nc1ccccc1
9	i	-0.1	-10.4	-8.8	-0.6	0.707	-2.2	CC1CCN(S(=O)(=O)N2CCC(C(=O)NC3CCCC3)CC2)CC1
10	i	-0.6	-17.7	-3.6	-6.6	0.673	8.4	CCOC(=O)C(C)Sc1ccc2nnc(CCNS(=O)(=O)c3ccccc3)n2n1 (centres undefined)
11	.	-1.2	-90.4	-3.9	4.2	0.716	1.2	CC(=O)Nc1ccc2nc(NS(=O)(=O)c3ccc(C)cc3)sc2c1
12	i	0.3	-6.2	3.6	1.4	0.649	1.2	COc1ccc2cnn(-c3ccc(OC(F)(F)Cl)cc3)c(=O)c2c1OC
13	i	2.0	-11.5	2.8	1.3	0.654	2.9	O=C(c1ccc(OC2CCN(Cc3ccccn3)CC2)cc1)N1CCCCCC1
14	i	5.4	6.6	3.6	3.9	0.694	5.1	CC1=NN(c2ccccc2)C(=O)/C1=C/c1ccc(Cl)cc1
15	.	4.1	-15.9	1.9	1.1	0.7	-9.3	CCOC(=O)CCCNC(=O)COc1ccccc1C#N
16	i	.	27.9	3.6	4.2	.	-10.4	Cc1cccc(N2CN=c3s/c(=C\c4ccccn4)c(=O)n3C2)c1
17	i	.	?	1.7	-0.1	.	-2.9	O=C(CCN1CCN(c2ccccc2)CC1)N/N=C/c1ccccc1OC(F)F
18	i	1.1	.	-3.3	4.5	0.636	-0.8	CC1CCN(c2nnc(-c3cccs3)c3ccccc23)CC1
19	i	1.0	1.7	-4.1	-1.9	0.702	-11.2	CC(=O)Nc1ccc(S(=O)(=O)N(C)Cc2cnn(C)c2)cc1
20	i	0.0	-28.7	-2.5	1.6	0.74	-3.2	O=C(O)CCC(=O)NCc1ccc2[nH]c3c(c2c1)CCCC3
21	i	-3.5	-1.8	-0.1	-0.2	0.696	2.8	COCCN(C(=O)COC(=O)c1c(NC(C)=O)sc(C)c1C)c1c(N)n(Cc2ccccc2)c(=O)[nH]c1=O
22	i	0.3	-5.4	-4.3	7.2	0.708	3.1	O=C(NCc1cccs1)c1cc(-c2ccc(O)cc2)on1
23	i	-1.3	-0.5	-2.6	1.1	0.701	-4.4	Cc1ccc(S(=O)(=O)N2CCOCC2)cc1NC(=O)CSCc1c(C)noc1C
24	.	-0.6	-18.7	1.2	0.6	0.771	3.7	O=C(Nc1ccc2c(c1)OCCO2)c1cnc2ccccn2c1=O
25	.	2.2	-27.7	3.2	1.9	0.692	2.0	CC(C)(C)NC(=O)Cn1cnc([N+](=O)[O-])n1

Ordered by number of heavy atoms (descending): some entries from above
entry	FGF22 binding	UCH37 inh	ALR inh	LANA-H2B inh	HNF4A DNA FP	Ecoli growth	Beta2AR agonist	compound
1	.	4.8	-0.7	-8.0	2.4	0.709	-7.8	Cc1ccccc1NC(=O)Cn1c(=O)n(Cc2ccccc2)c(=O)c2c(C)c(C)sc21
13	i	2.0	-11.5	2.8	1.3	0.654	2.9	O=C(c1ccc(OC2CCN(Cc3ccccn3)CC2)cc1)N1CCCCCC1
22	i	0.3	-5.4	-4.3	7.2	0.708	3.1	O=C(NCc1cccs1)c1cc(-c2ccc(O)cc2)on1

Later entries:
entry	FGF22 binding	UCH37 inh	ALR inh	LANA-H2B inh	HNF4A DNA FP	Ecoli growth	Beta2AR agonist	compound
26	.	1.2	10.9	0.3	4.1	0.744	5.7	COc1cc(OC)cc(C(=O)OCC(=O)Nc2ccc(N3CCCCC3)cc2)c1
27	i	0.8	-10.7	-1.1	-2.1	.	0.7	NC(=O)[C@@H]1CCOc2c(F)cc([N+](=O)[O-])cc2C(=O)N[C@@H](CO)C(=O)NCC(=O)N1
28	i	1.5	4.0	-1.7	-3.3	0.678	9.2	Cc1nn(-c2ccc(Cl)cc2)c2[nH]c(CCl)cc(=O)c12
29	i	-27.7	-12.9	-1.9	0.1	0.71	6.4	CCN(CC)CCCNc1cc(C)nc2cc(-c3cccs3)nn12
30	i	2.0	-6.4	1.8	0.9	0.732	2.5	CC(C)CC(=O)N(Cc1ccc(F)cc1)C1CCS(=O)(=O)C1 (centres undefined)
31	.	-1.5	-10.7	-0.4	-1.2	0.735	-5.0	Cc1cc(NC(=O)Nc2cc(C)nn2-c2ccccc2)n(-c2ccccc2)n1
32	.	4.2	-3.8	2.9	-3.2	0.661	1.2	CCn1nccc1C(=O)Nc1ccc(C)c(C)c1
33	i	-25.3	36.6	-1.9	0.3	0.75	8.3	COc1ccc(-c2csc3nc(C)nc(N4CCN(c5ccc(C(C)=O)cc5)CC4)c23)cc1OC
34	i	-0.8	-5.7	-8.8	4.6	0.689	17.2	COc1cc2cnc(-c3ccccc3)c(-c3cc(OC)c(OC)c(OC)c3)c2cc1OC
35	.	7.8	.	4.8	1.8	0.69	1.3	Cc1ccc([C@@H]2CC=C(C(=O)O)[C@H](c3cccc(F)c3)N2S(=O)(=O)c2ccccc2C)cc1
36	i	1.9	-34.9	2.4	-3.8	0.699	5.4	COC(=O)CSc1nc2ccccc2c(=O)n1Cc1ccccc1
37	i	-3.0	-1.7	5.5	0.2	0.67	4.5	Cc1ccccc1C(=O)OC(C)C(=O)NCc1ccc2c(c1)OCO2 (centres undefined)
38	.	.	-7.9	0.5	45.8	.	-6.9	S=C(NCCN1CCOCC1)N/N=C/c1c2ccccc2cc2ccccc12
39	.	0.1	-0.2	-3.3	1.1	0.709	-5.5	Cc1cc(NC(=O)COC(=O)C(Nc2ccc(C(F)(F)F)cc2Cl)C(C)C)no1 (centres undefined)
40	i	3.2	0.8	-0.1	-6.3	.	2.6	C[C@@H]1CN([C@H](C)CO)C(=O)c2cccc(NC(=O)NC3CCCCC3)c2O[C@@H]1CN(C)C(=O)Nc1ccc(C(F)(F)F)cc1
41	.	15.0	28.2	-5.2	0.8	0.75	0.1	COc1cc(C2/C(=C(\O)c3ccc4c(c3)CC(C)O4)C(=O)C(=O)N2CCCn2ccnc2)ccc1O (centres undefined)
42	.	1.1	0.3	3.5	1.6	0.708	-5.8	CN(C)CCN1C(=O)c2oc3ccccc3c(=O)c2C1c1ccc(F)cc1 (centres undefined)
43	.	1.8	-4.3	1.0	6.9	0.688	3.0	COc1ccc(CCNC(=O)CC2Nc3ccccc3NC2=O)cc1OC (centres undefined)
44	.	-10.0	4.3	15.1	0.0	0.727	-3.5	Cc1ccc(OCC(=O)Nc2ccc(Cl)cc2)c(-n2nc3ccccc3n2)c1
45	.	3.8	-0.8	4.1	3.1	0.656	-7.0	O=C(Nc1ncc(Cc2ccccc2Cl)s1)C1CCCO1 (centres undefined)
46	.	-0.5	-4.0	0.7	6.2	0.678	-9.8	CCn1c(SCc2nc3ccccc3s2)nnc1-c1cccs1
47	i	-0.8	-4.6	3.4	1.0	0.688	11.0	Cc1ccc(NC(=O)Nn2cnnc2)cc1Cl
48	.	3.4	0.7	1.6	1.0	0.672	4.1	O=C(c1ccc(Cl)c(S(=O)(=O)N2CCc3ccccc3C2)c1)N1CCN(c2ccccc2)CC1
49	i	6.8	8.9	-3.1	-0.6	0.712	-4.3	O=[N+]([O-])c1cc([N+](=O)[O-])c(Oc2cc(F)cc(F)c2F)cc1NN1CCCCC1
50	.	2.6	.	6.8	1.4	0.742	-0.6	CNC(=O)COc1ncnc2sc(C)c(C)c12
51	.	3.2	-3.0	-0.1	0.8	0.672	-1.4	Cc1ccc(SCc2cc(=O)[nH]c(Nc3nc(C)c4cccc(C)c4n3)n2)cc1
52	i	1.2	-52.5	0.9	-1.4	0.625	4.1	CC(OC(=O)c1ccc(Cl)c(S(N)(=O)=O)c1)C(=O)NCc1ccc2c(c1)OCO2 (centres undefined)
53	i	4.7	.	3.3	3.1	0.737	-5.2	CC(C)(C)C(=O)CC1(O)C(=O)N(Cc2ccccc2)c2ccccc21 (centres undefined)
54	i	-0.2	.	1.7	-1.9	0.694	-2.0	CS(=O)(=O)c1ccc(Cl)c(NC(=O)CSC(=S)N2CCCC2)c1
55	i	-1.6	-17.5	0.2	-1.7	0.724	-8.7	CN(CCCC(=O)Nc1nccs1)S(=O)(=O)c1ccc(Cl)cc1
56	i	0.3	0.6	-1.3	6.0	0.686	17.1	CC(C)Oc1ccc(S(=O)(=O)N2CCOCC2)cc1NC(=O)c1ccc(N2CCCC2=O)cc1
57	i	1.3	.	1.7	0.5	0.696	-0.7	COc1ccc(CCNC(=O)COc2coc(CN3c4ccccc4CC3C)cc2=O)cc1OC (centres undefined)
58	i	0.8	0.9	3.7	2.0	0.729	-1.6	CCc1ccc(C(=O)NNC(=O)c2cc(S(=O)(=O)N(C)C)ccc2N2CCCC2)cc1
59	i	.	-16.8	3.6	-1.4	.	8.4	CC(/C=C/c1ccco1)=N\NC(=O)CNc1ccc2ccccc2c1
60	i	2.5	-8.6	3.1	-4.8	0.66	-1.8	CC(=O)N(c1ccc(C)cc1)c1nc(C)cc(C)c1C#N
61	i	1.5	-0.7	-1.5	-2.6	0.719	-7.7	CCCCc1ccc(NC(=O)Cn2c(=O)c(N3CCCCC3)c(N)n(C)c2=O)cc1
62	i	.	.	.	-1.4	.	4.7	NC(=O)c1ncn([C@@H]2O[C@H](CNCc3ccc(-c4cc(C(F)(F)F)ccc4Cl)o3)[C@@H](O)[C@H]2O)n1
63	i	-29.9	97.9*	-7.8	-0.7	0.674	13.5	S=c1[nH]nc(-c2c[nH]c3ccccc23)o1
64	i	-77.5	25.2	4.0	-0.7	.	-2.1	Cc1ccc(NC(=O)NC(=O)N(C(C)C)S(C)(=O)=O)nc1
65	.	4.1	.	2.5	4.6	0.699	-5.3	Cc1cc(O)c(C(C)C)cc1NC(=O)Cn1nc(C)c2ccccc2c1=O
66	i	2.0	-12.6	0.9	1.8	0.655	3.5	Cc1cccc2c(C(=O)N3CCCCC3)cc(-c3ccccc3)nc12
